Screening results (PubChem BioAssay)
GLD-1 TGE inh: GLD-1-TGE RNA interaction inhibition (C. elegans); Q17339; purified GLD-1 + fluorescein TGE RNA, fluorescence polarization; inhibition, % at 5.96 µM; actives 0.44% (n = 320,000);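 active = percent inhibition above a per-plate cutoff, the plate mean of test compounds plus 3 SD, cut at about 30% in these data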;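 note: 0% = DMSO wells with GLD-1 and probe and 100% = wells lacking GLD-1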
Target sequence (Q17339 whole entry, looked up): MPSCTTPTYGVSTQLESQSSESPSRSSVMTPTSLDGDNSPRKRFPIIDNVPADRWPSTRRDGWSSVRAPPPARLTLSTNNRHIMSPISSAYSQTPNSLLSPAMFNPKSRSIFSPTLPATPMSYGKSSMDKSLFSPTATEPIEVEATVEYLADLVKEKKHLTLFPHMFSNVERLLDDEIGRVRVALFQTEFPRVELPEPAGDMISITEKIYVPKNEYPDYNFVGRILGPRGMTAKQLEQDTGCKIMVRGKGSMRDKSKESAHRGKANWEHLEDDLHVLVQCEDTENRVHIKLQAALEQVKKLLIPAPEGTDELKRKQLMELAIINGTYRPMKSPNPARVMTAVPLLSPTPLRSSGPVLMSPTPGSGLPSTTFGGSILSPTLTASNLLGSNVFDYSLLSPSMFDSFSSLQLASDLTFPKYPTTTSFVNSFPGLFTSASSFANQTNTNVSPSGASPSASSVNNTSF
AHR act: activators of human aryl hydrocarbon receptor. P35869. actives 2.5% (n = 320,000). AHR-responsive luciferase reporter cells, luminescence. activation, % at 5 µM; in the data active = activation above about 47%;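 note: 0% = vehicle wells and 100% = reference agonist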
MEX-5 binding: C. elegans MEX-5 TCR-2 RNA binding activity. Q9XUB2. MEX-5/FITC-TCR2 RNA binding, fluorescence polarization; stronger effect = lower value. activity score (negative = inhibition of binding), % at 10 µM. actives 0.38% (n = 300,000). AID 1832;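 active = inhibition past about -25% in most replicates, and total fluorescence under double the plate's negative control median, limit read from the data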;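 note: 0% = DMSO and -100% = 5 µM competing unlabeled TCR2 RNA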
pPAFAH FP inh: inhibitors of human plasma PAF acetylhydrolase (pPAFAH). recombinant pPAFAH, FP-rhodamine probe fluorescence polarization. inhibition, % at 3.39 µM. AID 463082. actives 1.5% (n = 330,000). Q13093;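 active = inhibition above the mean inhibition across the screen plus 3 SD, cut at about 25% in these data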;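 note: inhibitors block binding of the rhodamine activity-based probe so polarization drops; 0% = enzyme with DMSO and 100% = wells lacking pPAFAH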
Bcl-xL primary: blocks human Bcl-xL binding to Bim BH3 peptide; GST-Bcl-xL / FITC-Bim BH3 peptide fluorescence polarization; inhibition, % at 10.9 µM; actives 0.7% (n = 320,000); AID 2129;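 active = inhibition above the mean of all tested compounds plus 3 SD, cutoff set per campaign, cut at about 30% in these data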;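 note: 0% = DMSO wells and 100% = unlabeled Bim-BH3 peptide competitor; inhibitors lower millipolarization by displacing the labeled peptide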
Target sequence (Q07817 whole entry, looked up): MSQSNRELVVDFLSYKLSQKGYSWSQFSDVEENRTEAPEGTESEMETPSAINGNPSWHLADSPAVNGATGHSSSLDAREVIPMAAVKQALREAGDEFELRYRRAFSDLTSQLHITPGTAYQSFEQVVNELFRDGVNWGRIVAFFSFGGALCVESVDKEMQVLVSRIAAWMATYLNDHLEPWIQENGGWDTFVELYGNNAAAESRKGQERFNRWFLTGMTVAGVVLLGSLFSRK
Fam108B inh: counter-screen for RBBP9 inhibitors: inhibitors of mouse Fam108B; recombinant Fam108B, FP-Rh probe fluorescence polarization; actives 0.33% (n = 300,000); inhibition, % at 9.51 µM; AID 1947;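 active = inhibition above the screen mean inhibition plus 3 SD, computed separately per campaign, cut at about 18% in these data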;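 note: inhibitors lower polarization as less probe binds the enzyme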
MCL1-BIM inh: disrupts human MCL1 binding to BIM-BH3 peptide; inhibition, % at 10.9 µM; Q07820; GST-MCL1 / FITC-Bim-BH3 fluorescence polarization; actives 0.68% (n = 320,000);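 active = inhibition above the mean inhibition of all tested compounds plus 3 SD, set per campaign, cut at about 40% in these data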;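 note: 0% = DMSO wells and 100% = unlabeled Bim-BH3 peptide control; higher means more loss of mP so more displacement of Bim peptide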
Target sequence (Q07820 whole entry, looked up): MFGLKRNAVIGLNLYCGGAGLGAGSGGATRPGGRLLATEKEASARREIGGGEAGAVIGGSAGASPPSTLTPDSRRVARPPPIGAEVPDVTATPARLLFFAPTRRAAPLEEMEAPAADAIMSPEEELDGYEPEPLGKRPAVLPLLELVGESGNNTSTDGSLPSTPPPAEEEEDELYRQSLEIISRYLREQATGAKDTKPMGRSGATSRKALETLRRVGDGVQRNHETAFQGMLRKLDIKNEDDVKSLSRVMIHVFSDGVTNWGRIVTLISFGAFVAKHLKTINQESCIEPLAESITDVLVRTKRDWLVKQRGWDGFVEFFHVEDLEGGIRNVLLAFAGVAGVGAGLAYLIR
PME-1 inh: blocks human protein phosphatase methylesterase 1. Q9Y570. recombinant PME-1, FP-Rh probe fluorescence polarization. inhibition, % at 5.9 µM. actives 0.53% (n = 320,000). AID 2130;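 active = inhibition above the campaign mean of all compounds plus 3 SD, cut at about 26% in these data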;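 note: competitive labeling of PME-1 active site by serine hydrolase directed probe; 0% = PME-1 with DMSO and 100% = wells lacking PME-1 enzyme; inhibitors block probe labeling so polarization falls and inhibition rises; many of its hits are not listed in these tables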
Numbers without * were called inactive; · = not tested or not shown.

Every second line gives: GLD-1 TGE inh	AHR act	MEX-5 binding	pPAFAH FP inh	Bcl-xL primary	Fam108B inh	MCL1-BIM inh	PME-1 inh
1) Cc1ccc(S(=O)(=O)N2[C@@H](c3ccc(Br)cc3)C(C(=O)O)=C[C@H]2CC2CCCC2)cc1
  1.6	-0.2	·	7.2	·	·	·	·
2) Cc1ccc(SCc2ccc(C(=O)NCc3ccncc3)cc2)cc1
  2.0	-1.8	0.4	8.0	-0.6	-1.6	-12.3	-5.8
3) COC(=O)CNC(=O)CCc1nnc(C2(c3ccc(Cl)cc3)CCC2)o1
  -2.7	1.0	2.1	3.9	5.7	1.6	1.1	-0.7
4) O=C(O)Cn1c(SCCOc2ccc(Cl)cc2)nc2ccccc21
  ·	·	-1.7	·	·	·	·	·
5) COc1cc2c(cc1OC)CN(C(=O)CSc1ccccc1C)CC2
  2.8	1.0	·	2.4	·	·	·	·
6) Cc1ccc(C(C)NC(=O)/C(C#N)=C\c2c(C)[nH]c3ccccc23)cc1 (stereo not given)
  11.7	0.5	-0.8	3.1	4.5	-2.0	-0.9	2.1
7) Cc1ccccc1S(=O)(=O)N1[C@@H](c2ccc(F)cc2)C(C(=O)O)=CC[C@H]1c1ccc(Cl)cc1
  -4.1	-1.0	·	9.5	10.9	-2.1	7.8	-3.1
8) COc1ccc(OCC(=O)N2CCN(c3nnc(-c4ccccc4)c4ccccc34)CC2)cc1
  -0.2	-3.2	0.6	5.2	-32.9	0.7	-7.7	-0.6
9) CCOC(=O)Cc1csc(NC(=O)CSc2ccc(Br)cc2)n1
  8.3	-1.2	0.5	10.2	11.1	-5.4	12.3	-2.9
10) Cc1ccc(CCNC(=O)C2CCCN(S(=O)(=O)c3cccs3)C2)cc1 (stereo not given)
  -0.3	-0.3	2.6	1.3	-5.5	4.6	-0.8	4.1
11) O=S(=O)(CS(=O)(=O)c1ccc(Cl)cc1)c1ccc(Cl)cc1
  -5.7	-0.3	-2.1	-3.0	1.3	2.3	5.6	-0.4
12) O=C(COC(=O)CNC(=O)c1cc(Cl)cc([N+](=O)[O-])c1)NC(=O)NCc1ccco1
  -2.8	-1.0	·	4.2	·	·	·	·
13) N/C(=N\OC(=O)CCCc1ccccc1)c1ccc([N+](=O)[O-])cc1
  3.3	4.5	-1.7	2.5	-0.2	3.6	8.6	5.6
14) Cc1ccc([C@H]2C(C(=O)O)=CC[C@@H](c3ccc4c(c3)OCO4)N2S(=O)(=O)c2ccc(C)cc2)cc1
  6.8	2.0	·	1.5	·	·	·	·
15) O=C(NCCc1c[nH]c2ccccc12)C(=O)NCC1OCCCN1S(=O)(=O)c1cccs1 (stereo not given)
  2.3	9.3	0.3	2.3	0.9	2.0	-0.8	2.4

Some of the entries so far, in markdown:
| # | Compound | GLD-1 TGE inh | AHR act | MEX-5 binding | pPAFAH FP inh | Bcl-xL primary | Fam108B inh | MCL1-BIM inh | PME-1 inh |
| --- | --- | --- | --- | --- | --- | --- | --- | --- | --- |
| 2 | Cc1ccc(SCc2ccc(C(=O)NCc3ccncc3)cc2)cc1 | 2.0 | -1.8 | 0.4 | 8.0 | -0.6 | -1.6 | -12.3 | -5.8 |
| 3 | COC(=O)CNC(=O)CCc1nnc(C2(c3ccc(Cl)cc3)CCC2)o1 | -2.7 | 1.0 | 2.1 | 3.9 | 5.7 | 1.6 | 1.1 | -0.7 |
| 4 | O=C(O)Cn1c(SCCOc2ccc(Cl)cc2)nc2ccccc21 | · | · | -1.7 | · | · | · | · | · |
| 5 | COc1cc2c(cc1OC)CN(C(=O)CSc1ccccc1C)CC2 | 2.8 | 1.0 | · | 2.4 | · | · | · | · |
| 6 | Cc1ccc(C(C)NC(=O)/C(C#N)=C\c2c(C)[nH]c3ccccc23)cc1 (stereo not given) | 11.7 | 0.5 | -0.8 | 3.1 | 4.5 | -2.0 | -0.9 | 2.1 |
| 7 | Cc1ccccc1S(=O)(=O)N1[C@@H](c2ccc(F)cc2)C(C(=O)O)=CC[C@H]1c1ccc(Cl)cc1 | -4.1 | -1.0 | · | 9.5 | 10.9 | -2.1 | 7.8 | -3.1 |

(list continues)
Every second line gives: GLD-1 TGE inh	AHR act	MEX-5 binding	pPAFAH FP inh	Bcl-xL primary	Fam108B inh	MCL1-BIM inh	PME-1 inh
16) O=C(NNS(=O)(=O)c1ccc(Br)cc1)NC1CCCCC1
  4.6	2.8	-2.3	2.4	-1.1	-1.5	-5.7	1.7
17) CN(c1ccc(OCC(=O)NCCc2ccccc2)cc1)S(=O)(=O)c1ccc(Cl)cc1
  1.3	16.1	-4.5	5.1	5.4	4.7	2.8	-0.8
18) Cc1cccc(C(=O)OCC(=O)N(C)CC(=O)Nc2ccc(Cl)c(C(F)(F)F)c2)c1
  3.4	-2.2	·	9.8	4.1	·	2.6	-14.9
19) Cc1c(NC(=O)COC(=O)C2(c3ccc(F)cc3)CCCC2)c(=O)n(-c2ccccc2)n1C
  4.0	13.7	0.6	-9.9	-2.8	-2.6	-3.0	10.3
20) CCCCC(CC)CNC(=O)CN1C(=O)NC2(CCc3ccccc32)C1=O (stereo not given)
  -0.4	-1.3	0.5	1.1	4.6	-3.4	-0.8	1.8
21) COC(=O)N/N=C/c1cccc(OCCSc2ccc(Cl)cc2)c1
  3.4	19.0	-0.6	11.9	1.6	-13.2	1.1	-5.1
22) O=C(O)CC1(CC(=O)NCc2ccc(Cl)cc2)CCCCC1
  -1.6	1.0	2.2	3.1	0.1	0.0	-2.7	-2.9
23) Cc1ccc(C2(c3noc(CN(C)Cc4ccccn4)n3)CCCC2)cc1
  7.4	2.0	-3.5	6.0	2.4	-1.6	0.8	-4.4
24) S=c1[nH]nc(-c2ccccc2)n1C1C=CCCC1 (stereo not given)
  6.5	4.2	0.4	5.9	2.9	4.7	-4.3	6.8
25) Oc1ccccc1-c1n[nH]c(=S)n1Cc1ccccc1
  6.4	20.7	-1.1	3.4	-0.8	8.7	6.9	6.2
26) O=S(=O)(Nc1ccc2c(c1)OCCO2)c1ccc2oc3ccccc3c2c1
  4.0	0.1	-1.2	-10.6	0.7	-17.0	0.3	-19.5
27) CC(NC(=O)c1cccs1)c1ccc(Cl)cc1 (stereo not given)
  1.1	0.5	-0.1	-0.9	1.4	-0.9	2.4	-2.7
28) CC(C)C(=O)Nc1nnc(S(=O)(=O)N(C)c2ccc(Cl)cc2)s1
  ·	·	-1.2	·	·	·	·	·
29) O=C(N1CCOCC1)C1(c2ccc(Cl)cc2)CCCC1
  2.4	1.7	0.5	0.5	0.6	4.0	-2.3	-1.9
30) O=C(CSCc1ccc(Br)cc1)NC1CC1
  -2.6	-2.0	-0.2	2.5	3.9	-0.1	-3.9	-0.4
31) Cc1ccc(SCc2cn3c(C)cc(C)nc3n2)cc1
  9.4	0.0	-1.3	1.3	6.4	1.3	9.9	0.1
32) O=C(O)c1ccc(NS(=O)(=O)c2ccc3c(c2)OCCO3)cc1
  -0.1	-1.2	-1.0	-2.9	-1.0	-1.2	1.5	-5.0
33) COc1cc(O)c(CC=C(C)C)c(O)c1C(=O)CCc1ccc(O)cc1
  14.0	2.8	2.0	31.5*	-2.8	-12.5	1.0	-28.1
34) O=C(c1ccc(Cl)nc1)N1CCN(S(=O)(=O)c2ccc(Cl)cc2)CC1
  0.4	-1.4	-2.6	-2.9	2.0	3.7	5.5	8.8
35) Nc1cccc(-c2csc(-n3ncc(C(=O)O)c3C(F)(F)F)n2)c1
  -7.4	-0.1	-6.8	15.9	4.4	1.9	12.5	5.8
36) Cc1[nH]c(SCC(=O)Nc2cc(C(N)=O)cc(C(N)=O)c2)nc1Cc1ccccc1
  7.7	0.4	·	3.9	·	·	·	·
37) Cc1ccc(S(=O)(=O)Nc2cccc(NC(=O)CN3CCCCC3)c2)cc1
  -1.5	-1.3	-0.4	2.4	6.4	2.9	-3.3	6.9
38) CCC(=O)NC(=S)Nc1cccc(NC(=O)c2ccc(Cl)cc2Cl)c1
  -2.1	10.5	-0.3	-2.1	8.7	1.9	7.5	4.0
39) Cc1ccc(SCC(=O)Nc2ccc(S(=O)(=O)Nc3ncccn3)cc2)cc1
  2.2	0.5	-0.7	7.9	3.8	1.1	6.5	0.5
40) CC(C(=O)N1CCCCC1)N1CCN(S(=O)(=O)c2ccc(Cl)cc2)CC1 (stereo not given)
  -0.1	0.7	·	-0.2	-9.4	·	-13.0	-0.6
41) Nc1ccc(C(=O)N2CCN(S(=O)(=O)c3ccc(Br)cc3)CC2)cc1[N+](=O)[O-]
  -0.4	-2.3	-5.2	2.0	2.5	-0.7	-4.2	10.0
42) Cc1ccc(SCC(=O)OC(C)C(=O)N2CCc3ccccc32)cc1 (stereo not given)
  -3.5	6.7	-4.6	-6.5	-4.3	0.0	-7.3	-6.2
43) O=C1CC[C@H](OCc2ccccc2)CCN1[C@H](CSc1ccccc1)Cc1ccccc1
  0.6	4.4	3.5	4.6	1.3	-14.8	1.4	2.0
44) CCCCCCCCNC(=O)CCNC(=O)c1ccc(C(C)(C)C)cc1
  5.5	-0.1	0.5	3.5	3.6	3.6	12.2	-4.1
45) CC(=O)c1cccc(S(=O)(=O)NC(C)C2CC3CCC2C3)c1 (stereo not given)
  3.5	-1.7	-1.9	9.6	5.7	-3.5	4.5	4.8
46) CCOc1ccc(C(=O)C(c2ccccc2)N2CCOCC2)cc1 (stereo not given)
  4.4	1.8	-1.6	-4.5	6.0	1.8	0.0	5.5
47) CC(Oc1ccccc1)c1ccnn1S(=O)(=O)c1ccccc1 (stereo not given)
  4.1	3.8	2.2	-0.2	3.8	-3.3	-2.3	3.0
48) N#Cc1c(NC(=O)CSc2nnc(-c3ccccc3)o2)sc2c1CCCC2
  5.0	11.7	-0.7	10.3	-4.1	-2.7	-7.6	-3.4
49) CCc1ccc(C(C)NC(=S)NCc2ccc(F)cc2)cc1 (stereo not given)
  5.7	-0.7	-0.1	6.6	5.6	-2.4	5.2	2.7
50) O=C(O)c1ccc(Cl)c(S(=O)(=O)N2CCC(Cc3ccccc3)CC2)c1
  -0.7	-1.5	-2.8	6.5	2.6	-1.3	-1.8	0.8
51) CC(C)(C)c1[nH]nc2c1C(c1ccc(OC(=O)c3ccco3)cc1)C(C#N)=C(N)O2 (stereo not given)
  2.1	0.0	-1.7	3.2	-1.4	0.7	-2.0	-5.6
52) Cc1cc(N/C(=N\S(=O)(=O)c2ccc(Cl)cc2)c2ccc(F)cc2)no1
  -6.3	6.9	0.1	-1.0	-1.6	0.4	-0.2	-2.4
53) CCC12CC3CC(C1)CC(C(=O)Nc1nn[nH]n1)(C3)C2
  5.5	1.1	0.1	-2.6	0.9	1.6	8.1	1.7
54) Clc1ccc2nc(CSc3ncn[nH]3)cn2c1
  0.4	8.1	48.4	2.0	6.9	0.0	8.6	0.3
55) CC(C)n1c(SCc2ccc(Cl)cc2)nc2c1c(=O)[nH]c(=O)n2C
  -5.1	15.0	0.5	7.3	3.1	-2.7	12.3	0.4
56) CS(=O)(=O)N(Cc1ccccc1)c1ccc(C(=O)NCCSc2ccccn2)cc1
  3.9	1.2	1.4	8.1	2.7	0.6	0.3	-3.4
57) CC(C)C(NC(=O)CSc1ccc(Cl)cc1)C(C)C
  -3.6	-0.6	2.2	8.3	3.9	0.7	-1.1	1.3
58) O=C(O)c1ccc(CSc2nnc(COc3ccc(Cl)cc3Cl)o2)cc1
  6.6	-2.1	0.5	1.6	2.2	-1.6	0.3	-0.7
59) Cc1nc(C)c(-c2ccn(S(=O)(=O)c3ccc(Cl)cc3)n2)o1
  0.9	-0.1	1.9	4.3	1.6	-2.4	6.8	2.6
60) Cc1ccc(CNS(=O)(=O)c2ccccc2[N+](=O)[O-])cc1
  2.4	-1.8	1.4	0.6	7.3	2.8	-2.0	-0.8

Some of the compounds tested; count on the stated rates, not on these rows.
